Cruzain noTriton: inhibitors of Trypanosoma cruzi cruzain without detergent; purified cruzain, Z-FR-AMC fluorescence, no detergent; Potency, µM, for inactives: max response, negative = inhibition, actives largely listed as inhibitors; P25779; 2.3% of 200,000 active; active means well fitted curve in the direction sought with a large enough effect; inconclusive means small, poorly fitted or top-dose-only effect, or another doubt; inactive means no such curve, though single readings can be large; an effect the other way counts as inactive or inconclusive;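 further: plate controls were enzyme without inhibitor for no effect and buffer without enzyme for full effect; nearly all actives have a fitted effect of over 40% in size; top concentration of the series not given in the record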
Target sequence (P25779 123-467 limits assumed): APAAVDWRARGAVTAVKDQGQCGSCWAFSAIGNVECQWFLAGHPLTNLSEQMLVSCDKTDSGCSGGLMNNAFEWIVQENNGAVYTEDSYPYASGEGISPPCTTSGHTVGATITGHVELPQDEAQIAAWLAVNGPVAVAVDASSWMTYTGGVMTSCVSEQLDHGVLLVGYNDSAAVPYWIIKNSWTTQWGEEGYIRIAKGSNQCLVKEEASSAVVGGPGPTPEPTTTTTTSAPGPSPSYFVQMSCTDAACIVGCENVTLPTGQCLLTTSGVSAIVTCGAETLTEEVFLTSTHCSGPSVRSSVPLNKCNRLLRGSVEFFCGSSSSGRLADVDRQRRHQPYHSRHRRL
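Purified cruzain at 1.5 nM, pre-incubated 15 min with compound at room temperature in 100 mM sodium acetate pH 5.5, 5 mM DTT, 0.00005% Triton X-100. Reaction started with 2 uM Z-FR-AMC; AMC fluorescence increase over 60 s gives rate.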
Lassa entry inh: blocks Lassa virus binding to or entry into cells | Lassa virus pseudotype entry inhibition, cell reporter; control for the full effect not named in the record | Potency, µM (top dose mostly 37.9 µM), for the others: top-dose activity change, negative = inhibition, actives largely listed as inhibitors | 1.2% of 300,000 active; active means well fitted inhibition curve with a large enough effect; inconclusive means small, poorly fitted or top-dose-only effect, or effect the other way; inactive means flat fitted curve, though single readings scatter; tested in HEK293 cells; further: on the % scale 0 is the no-effect control and ±100 the full control effect; nearly all actives have a fitted effect of over 50% in size; luciferase read-out
StopGo reporter: lowers the luciferase signal of an FMDV 2A StopGo reporter; human cells with a luciferase reporter of 2A StopGo recoding; control for the full effect not named in the record; 1.2% of 410,000 active; Potency, µM (titrated, usually from 57.9 µM), for the others: top-dose signal change, negative = less light; AID 1159524; active = well fitted falling curve with a large enough effect; inconclusive = small, poorly fitted or top-dose-only effect; inactive = no such curve, though single readings can be large or run the other way; tested in HEK293T cells; further: on the % scale 0 is the no-effect control and ±100 the full control effect; nearly all actives have a fitted effect of over 45% in size; luciferase light after 4 h
NS1 function inh: inhibitors of influenza NS1 protein function; S. cerevisiae slowed by influenza A NS1, growth recovery by OD600; 0.4% of 270,000 active; Potency, µM (highest dose often 46.1 µM), for inactives: at the highest dose activity, positive = more growth; further: actives are rising curves; nearly all actives have a fitted effect of over 50% in size
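S. cerevisiae expressing influenza A NS1, grown in glucose, washed, then diluted 1:100 into pH 6.0 -URA galactose medium with 23 nl compound. Growth recovery read as OD600; NS1-free strain serves as control.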
Cruzain inh Det: cruzain (T. cruzi) inhibition with detergent; 0.43% of 200,000 active; purified cruzain, Z-FR-AMC fluorescence, 0.01% Triton; P25779; Potency, µM, for the others: max response, negative = inhibition, actives largely listed as inhibitors; active means well fitted curve in the direction sought with a large enough effect; inconclusive means small, poorly fitted or top-dose-only effect, or another doubt; inactive means no such curve, though single readings can be large; an effect the other way counts as inactive or inconclusive;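 further: plate controls were neutral wells for no effect and buffer without enzyme for full effect; nearly all actives have a fitted effect of over 40% in size; top concentration of the series not given in the record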
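Z-FR-AMC hydrolysis (2 uM substrate) by cruzain (1.5 nM) monitored kinetically at ex 360/em 450 nm after 15 min room-temperature compound exposure; 0.01% Triton X-100, pH 5.5, 5 mM DTT.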
Marburg entry inh: inhibitors of Marburg virus binding or cell entry; Marburg virus pseudotyped entry inhibition, cell reporter; control for the full effect not named in the record; about a third of the inactives were read at about 46 µM; Potency, µM (doses to about 37.8 µM), without a hit: at the highest dose activity change, negative = inhibition, actives largely listed as inhibitors; 1.8% of 300,000 active; active = well fitted inhibition curve with a large enough effect; inconclusive = small, poorly fitted or top-dose-only effect, or effect the other way; inactive = flat fitted curve, though single readings scatter; tested in HEK293 cells; about a fifth of its hits are not listed in these tables; further: on the % scale 0 is the no-effect control and ±100 the full control effect; luciferase read-out
RE007 growth inh: less growth of the S. pombe RE007 Vpr strain; 0.21% of 360,000 active; Potency, µM (top dose mostly 92.2 µM), for the others: top-dose activity change, negative = less growth; S. pombe RE007 Vpr strain, BacTiter-Glo ATP luminescence, 24 h; control for the full effect not named in the record; AID 651644; active = well fitted falling curve with a large enough effect; inconclusive = small, poorly fitted or top-dose-only effect; inactive = no such curve, though single readings can be large or run the other way;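 further: on the % scale 0 is the no-effect control and ±100 the full control effect; nearly all actives have a fitted effect of over 50% in size; the assay follows cell death caused by Vpr and the record does not say whether a fall means rescue or toxicity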
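Fission yeast strain RE007, carrying one chromosomally integrated HIV-1 vpr copy, was seeded at OD 0.01 in PMG+AL medium with 23 nL pinned compound. After 24 h at 30 °C and 99% humidity, viability was read by BacTiter-Glo luminescence.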
SARS PLpro yeast: blocks SARS-CoV papain-like protease in a yeast assay; AID 485353; 0.19% of 330,000 active; S. cerevisiae expressing SARS-CoV PLpro, growth rescue; control for the full effect not named in the record; Potency, µM (top dose mostly 32.9 µM), for the others: at the top dose activity, positive = growth rescue; further: 0% is about no effect; nearly all actives have a fitted effect of over 55% in size; growth read by luminescence after 48 h
* marks the source's active call; other numbers are inactive results; ? = inconclusive; . = no result given; ! = repeats disagree; [ ] = remark or other dose. Unless noted, the call rests on the fitted dose curve; in most records, active means well fitted rising curve with a large enough effect; inconclusive means small, poorly fitted or top-dose-only effect; inactive means no such curve, though single readings can be large or run the other way. Potency means the concentration at half of the fitted maximal effect. Compounds as they come. About 4.7% of those tested had a hit in this group.

SMILES	Cruzain noTriton	Lassa entry inh	StopGo reporter	NS1 function inh	Cruzain inh Det	Marburg entry inh	RE007 growth inh	SARS PLpro yeast
CCCCCN(C(=O)CCC(=O)OC(C)C(=O)NCc1ccccc1)c1c(N)n(CCCC)c(=O)[nH]c1=O (stereo not given)	.	4%	-13%	.	.	1%[46.1 µM]	8%	-8%
O=c1[nH]nc(Br)c(=O)n1C(c1ccccc1)c1ccccc1	.	15%[46.1 µM]	0%	.	.	0%	21%	.
CCCSc1nnc2[nH]c(=O)cc(C)n12	24%	-1%[46.1 µM]	-11%	.	-0.3%	.	.	.
CC1CN(C(=O)C(C)N2C(=O)c3ccccc3C2=O)CC(C)O1 (stereo not given)	6%	1%	2%	?	-2.0%	?	-5%	-4%
Cc1cc(Br)ccc1NC(=O)c1sc2ncn(CC(=O)N3CCN(c4ccccn4)CC3)c(=O)c2c1C	.	.	-21%	2%	.	.	3%	4%
O=C(COc1ccccc1[N+](=O)[O-])N(Cc1ccco1)c1ccccn1	-1%	?	28%	.	-3.1%	34%[46.1 µM]	.	.
COCCNC(=O)Nc1ccc2nc(-c3ccco3)c(-c3ccco3)nc2c1	.	.	-19%	20%	.	.	-3%	0%
COC(=O)c1ccccc1C[C@]1(C(=O)OC)C=C[C@H](C)[C@@H](c2ccccc2)N1C(=O)C(F)(F)F	0%	?	.	.	-0.2%	-16%[14.2 µM]	.	.
C/C(=N\NC(=O)CSc1nc2ccccc2[nH]1)c1ccncc1	.	-14%	-16%	.	.	-13%[46.1 µM]	3%	-1%
Cc1cc(C)c2c(n1)SCC(=O)N2CC(=O)Nc1ccccc1Cl	.	.	-8%	-2%	.	.	5%	-1%
O=c1[nH]c(CN2CCN(c3ncccn3)CC2)nc2c(Br)cc(Br)cc12	.	11%	-13%	-1%	.	5%[46.1 µM]	0%	-1%
CC(=O)/C=C/n1c(=S)oc2ccccc21	-5%	?	3.2µM*	-41%	-1.2%	13µM*	40µM*	-82%
CCO/C(C)=N/n1c2nc3ccccc3nc2c2c(=O)n(C3CCCC3)c(C)nc21	-2%	4%	-22%	-27%	-0.9%	?	-22%	0%
COc1cccc(S(=O)(=O)NCc2ccc(C(=O)Nc3ccc(Cl)c(Cl)c3)cc2)c1	?	-15%	?	-6%	-1.0%	?	3%	20%
Cc1ccc(NC(=O)c2oc3ccccc3c2NC(=O)c2ccccc2C)cc1	-8%	-9%[46.1 µM]	3%	.	-3.2%	0%[46.1 µM]	.	.
COc1ccc(CNC(=O)C2CCN(S(=O)(=O)c3ccc4c(c3)C(C)(C)C(=O)N4C)CC2)cc1	.	.	-9%	-4%	.	.	-10%	-2%
CN(C)/C=C/C(=O)/C=C/c1cn(-c2ncc(C(F)(F)F)cc2Cl)c2ccccc12	12%	?	-23%	1%	-5.2%	?	3%	-14%
Clc1cncc(Cl)c1N/N=C/c1ccncc1	-7%	-5%	-21%	-19%	-7.7%	?	5%	-42%
C=CC1CN(CC(=O)OC)S(=O)(=O)c2ccccc21 (stereo not given)	.	.	-17%	7%	.	.	-6%	2%
CCCCOc1ccc(C(=O)N(Cc2ccco2)C2CCS(=O)(=O)C2)cc1 (stereo not given)	.	.	-24%	4%	.	.	-5%	7%
COC1=CC(=O)C=C(OC)C1=O	17%	.	28µM*!	.	-1.4%	.	-15%[18.4 µM]	.
c1cnn(-c2cc(N3CCOCC3)ncn2)c1	-4%	21%	25%	4%	4.3%	4%	1%	4%
CNc1nc(N/N=C/c2ccc([N+](=O)[O-])cc2)nc(Nc2ccccc2)n1	0%	-24%	-13%	27%	-11%	?	-14%	-58%
CC(=O)N1c2ccc(S(=O)(=O)NCCC(=O)Nc3cccc(Cl)c3)cc2CC1C (stereo not given)	.	.	-2%	-5%	.	.	-5%	3%
COc1ccccc1NC(=S)NCc1ccccc1	.	23%[46.1 µM]	31%[activator]	11%	.	2%[46.1 µM]	-23%	-7%
O=C1C2CCCN2C(=S)N1c1cc(Cl)ccc1Cl (stereo not given)	.	?	0%	.	.	?	-23%	-1%
CC(C)Cn1c(=O)c2ccccc2n2c(CCC(=O)NCc3ccccc3Cl)nnc12	5%	.	-11%	.	0.6%	2%[46.1 µM]	.	.
COc1cc(NC(=O)C2=C(C)OCCS2)c(Cl)cc1C(=O)NCCN(C)C	.	-39%[46.1 µM]	-11%	-2%	.	10µM*	-23%	-1%
C#CCN(C)CC/C=C1\c2ccccc2CSc2ccccc21	-1%	-5%	0%	-11%[9.22 µM]	-4.0%	?	-15%	-14%
CN1C(=O)C(O)(C2OC(C)(C)CCC2=O)c2ccccc21 (stereo not given)	-9%	-2%	3%	-7%	1.0%	-18%	20%	3%
Cc1nn(C)c(C(=O)Nc2ccc(Br)cc2F)c1Br	12%	4%	8%	17%	2.3%	7%	-27%	4%
Cc1ccc(-n2nnnc2-c2cnoc2-c2cccc(F)c2)cc1	-16%	-3%	6%	-6%	-7.1%	-15%	-22%	?
COc1ccccc1NC(=O)Nc1nc(CC(=O)N2CCN(c3ccccc3F)CC2)cs1	.	2%	?	.	.	?	10%	-4%
CC(C)Oc1cccc(C(=O)C2CCCN(C(=O)c3ccsc3)C2)c1 (stereo not given)	.	.	-1%	-12%	.	.	-12%	-1%
CCOc1cc(NC(=O)CCl)c(OCC)cc1NC(C)=O	.	?	-20%	-2%	.	?	0%	0%
O=C(CCCN1C(=O)CCC1=O)Nc1ccc(Cl)c(C(F)(F)F)c1	-5%	-6%	-24%	-12%	2.6%	-7%[46.1 µM]	0%	-3%
CC(C)n1cnc2cc(NCc3nc4ccccc4n3C)ccc21	2%	?	23%	-22%	-6.1%	?	-10%	6%
O=C1C(=O)N(CCN2CCOCC2)C(c2ccc([N+](=O)[O-])cc2)/C1=C(/O)c1ccc2c(c1)OCO2 (stereo not given)	.	?	-13%	8%	.	6%	16%	8%
Cc1ccc(NC(=O)Cc2coc3c(C)c(C)ccc23)c(C)c1	-21%	-4%[46.1 µM]	-3%	.	-3.6%	?	.	.
O=C(Cn1cnc2onc(-c3ccc(F)cc3)c2c1=O)N1CCN(c2ccccc2F)CC1	-4%	-10%[46.1 µM]	-12%	.	-7.4%	.	.	.
COc1ccc(OCCn2ccnc2)cc1	.	.	-8%	5%	.	.	2%	0%
COc1ccc(CNC(=O)c2coc(=O)c3ccccc23)c(OC)c1	.	?	-9%	3%	.	?	16%	1%
COc1cccc(NC(=O)c2ccc(-c3nc(COc4ccc(C)cc4)c(C)o3)cc2)c1	0%	?	0%	.	-2.4%	.	.	.
CC(Sc1nc2ccccc2n1C)C(=O)Nc1ccc(N2CCOCC2)cc1 (stereo not given)	.	27%[46.1 µM]	24%	.	.	0%[46.1 µM]	8%	1%
O=C(CCn1nc(-c2ccccc2)c2ccccc2c1=O)NN1CCOCC1	.	-5%	-11%	6%	.	?	5%	-1%
COC(=O)c1ccc(NC(=S)NN2CCCCC2c2cccnc2)cc1 (stereo not given)	.	12%[46.1 µM]	38%[activator]	-5%	.	?	-14%	0%
COC(=O)CSc1nc2sc3c(c2c(=O)n1-c1ccccc1C)CC(C)(C)OC3	8%	15%[46.1 µM]	-7%	.	-0.2%	25%[46.1 µM]	.	.
COc1ccc(Cn2c(=O)[nH]c3cc(C(=O)NCCCN4CCCCCC4)ccc3c2=O)cc1	.	16%[46.1 µM]	-11%	.	.	?	-13%	2%
Cc1csc(NC(=O)CSc2nnc(-c3cc(C)on3)o2)n1	-13%	7%	19%	?	-0.8%	0%	-1%	7%
O=C(O)/C=C/C(=O)Nc1ccccc1SC(F)(F)C(F)(F)C(F)(F)F	.	1%	?	-4%	.	-2%[46.1 µM]	3%	-5%
COCCN1CCN(C(=O)C2CCC(=O)N(Cc3ccccc3OC)C2)CC1 (stereo not given)	.	-14%	0%	9%	.	9%	-14%	-2%
O=C1N(Cc2ccccc2)c2ccc(Cl)cc2C1(O)c1c[nH]c2ccccc12 (stereo not given)	19%	?	-17%	.	-11%	?	.	.
Cc1ccc(C(=O)N[C@H](C(=O)OCC(=O)NC2CCS(=O)(=O)C2)C(C)C)cc1 (stereo not given in full)	-5%	24%	0%	12%	-8.8%	17%	-1%	6%
CC1CCN(S(=O)(=O)c2ccc3[nH]c(=O)cc(C(=O)O)c3c2)CC1	0%	27%[14.3 µM]	8%	0%	2.2%	-19%	4%	-2%
COc1cccc(C2Cc3ccccc3C(=O)O2)c1 (stereo not given)	-12%	0%	25%	-1%	-8.7%	6%	-14%	17%
CCOc1ccc(-n2cc(-c3ccccc3)c3c(N4CCN(c5ccccc5OC)CC4)ncnc32)cc1	-1%	14%[46.1 µM]	-12%	.	-0.1%	.	.	.
CCOC(=O)C(=CNc1nc(-c2ccccc2)c(C(=O)Nc2ccc(-c3ccccc3)cc2)s1)C(=O)OCC	.	.	1%	9%	.	.	6%	?
Cc1ccc(C2CCN(C(=O)c3cnn(-c4cccc(Cl)c4)c3C3CCN(C(=O)OC(C)(C)C)CC3)C2)cc1 (stereo not given)	?	?	?	.	-12%	.	.	.
CC1(C)CC(=O)c2cnc(NC(=O)CSC(=S)N3CCCCC3)nc2C1	.	2%	-1%	1%	.	?	-1%	5%
COC(=O)c1c(NC(=O)c2cccnc2)sc(C(=O)N(C)C)c1C	10%	17%	-3%	-2%	-2.3%	12%	3%	16%
COc1ccc(C(=O)N(C)Cc2ccon2)cc1OC1CCN(C(C)C)CC1	.	18%	5%	-5%	.	14%	2%	-2%
Nc1c(C(=O)NC2CCCCC2)nsc1C(=O)OCC(=O)NC1CCCCC1	6%	-28%	?	-14%	-5.5%	?	0%	5%
c1ccc(-c2cnc(CN3CCN(c4ccccc4)CC3)o2)cc1	.	-11%	7%	-28%	.	10%[46.1 µM]	-6%	-1%

Bioassay records deposited in PubChem BioAssay by National Center for Advancing Translational Sciences (NCATS).
